# AmpC nodet inh = AmpC beta-lactamase inhibition, detergent-free assay; AmpC nitrocefin hydrolysis, absorbance 480 nm, no detergent; potencies from a single point are estimates; AID 585; hit rate 1.8% among 71,000; Potency, µM (titrated, usually from 28.7 µM), for inactives: at the top dose activity change, negative = inhibition; active = falling curve, for most hits resting on a single point; inconclusive = weak or doubtful change; inactive = flat or rising curve; further: % of control where 0% means no effect; about half of the hits show no inhibition at the top dose; a quarter of the inactives give rising signals
# Target sequence (P00811 whole entry, looked up): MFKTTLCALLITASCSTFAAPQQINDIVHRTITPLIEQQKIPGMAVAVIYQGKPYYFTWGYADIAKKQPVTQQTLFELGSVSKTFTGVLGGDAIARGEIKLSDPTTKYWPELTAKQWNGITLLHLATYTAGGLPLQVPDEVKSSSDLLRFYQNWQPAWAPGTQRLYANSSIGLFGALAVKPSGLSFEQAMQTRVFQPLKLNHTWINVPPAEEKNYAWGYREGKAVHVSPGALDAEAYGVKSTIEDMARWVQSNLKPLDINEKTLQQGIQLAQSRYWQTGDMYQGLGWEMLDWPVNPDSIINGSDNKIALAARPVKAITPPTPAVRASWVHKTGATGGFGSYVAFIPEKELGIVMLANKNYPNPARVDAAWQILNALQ
#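 Enzyme, pH 7.0 phosphate. Compound titrations were pre-incubated with AmpC for 15 min at room temperature before nitrocefin (stock 800 uM) addition; product formation was recorded at 480 nm every 20 s for 4 min.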
# * = called active by the depositor; ? = inconclusive; [ ] = dose if it differs, or a comment. Potency means the concentration at half of the fitted maximal effect. These rows are one share of the data; the hit share may differ from the screen's.
> COc1ccc(S(=O)(=O)CCC(=O)Nc2c(C)n(C)n(-c3ccccc3)c2=O)cc1
  AmpC nodet inh = 4%
> CCC(c1nnc(SCc2nc3ccccc3s2)n1Cc1ccccc1)N(C)C (stereo unspecified)
  AmpC nodet inh = 118%
> COc1ccc(CCNC(=O)C2CCN(Cc3nc(-c4ccccc4C)oc3C)CC2)cc1OC
  AmpC nodet inh = 136%
> C#CCN(C)[C@@H](C)Cc1ccccc1
  AmpC nodet inh = 4%[12.8 µM]
> O=C(c1ccco1)N1CCN(CCCCN2C(=O)c3ccccc3C2=O)CC1
  AmpC nodet inh = 24%
> COc1ccc(CC(=O)n2nc(-c3ccccc3)nc2NCc2ccco2)cc1
  AmpC nodet inh = -12%
> C=CCn1c(SCc2c(C)noc2C)nnc1C1COc2ccccc2O1 (stereo unspecified)
  AmpC nodet inh = 20%
> Cc1ccc(C)c(C(=O)CSc2n[nH]c(C(C)C)n2)c1
  AmpC nodet inh = -2%
> CCn1c(CC(=O)Nc2ccc(C)cc2)nnc1SCC(=O)N1CCN(c2ccccc2)CC1
  AmpC nodet inh = 116%
> COCC(=O)N(C)c1nnc(-c2cnccn2)s1
  AmpC nodet inh = -4%
> Cn1c(=O)n(C)c2cc(NS(C)(=O)=O)ccc21
  AmpC nodet inh = -8%
> O=c1[nH]c(Cn2nnc(-c3ccccc3)n2)nc2scc(-c3ccccc3)c12
  AmpC nodet inh = ?
> CCCCCCNC(=O)Cc1nc2nc(C)cc(C)n2n1
  AmpC nodet inh = 29%
> CCOC(=O)c1c(NC(=O)Cc2cccs2)sc(C)c1C
  AmpC nodet inh = -14%
> COC(=O)C1=C(C)NC(=O)NC1c1cc(Cl)ccc1OC (stereo unspecified)
  AmpC nodet inh = -3%

> CO/C([O-])=N/c1c[n+](-c2ccc(C)cc2)no1
  AmpC nodet inh = 7%
> COc1cccc(OCC(O)CN2CCN(CCO)CC2)c1 (stereo unspecified)
  AmpC nodet inh = -5%
> COC(=O)CSc1nnc(CSc2nc(C)cc(C)n2)n1Cc1ccco1
  AmpC nodet inh = 38%
> CCC(c1nnnn1Cc1ccco1)N(CCc1ccccc1)Cc1cc2ccc(OC)cc2[nH]c1=O (stereo unspecified)
  AmpC nodet inh = 62%
> O=c1c2[nH]c3ccccc3c2ncn1CCC1=CCCCC1
  AmpC nodet inh = -10%
> COC(=O)C1=C(C)NC(C)=C(C(=O)OC)C1c1ccc(N(C)C)cc1
  AmpC nodet inh = 56%
> c1ccc(-n2ncc3c2ncn2c(C4CCCCC4)nnc32)cc1
  AmpC nodet inh = -11%
> CCN1CCN(C(c2cc3cc4c(cc3[nH]c2=O)OCO4)c2nnnn2C(C)(C)CC)CC1 (stereo unspecified)
  AmpC nodet inh = 10%
> CC1(C)CC(=O)C(C=NCCCN2CCOCC2)=C(O)C1
  AmpC nodet inh = 2%
> O=C1Nc2ccccc2C(O)(C(=O)NCc2ccc3c(c2)OCO3)N1c1ccccc1 (stereo unspecified)
  AmpC nodet inh = -6%
> O=C(Nc1ccccc1)OCCNC(=O)c1ccccc1
  AmpC nodet inh = -10%
> Cc1cnc(NC(=O)COc2ccccc2)s1
  AmpC nodet inh = -15%
> COc1ccc(Cc2nc(-c3ccc(-n4cccc4)cc3)no2)cc1
  AmpC nodet inh = 8%
> COc1cccc(-c2ccc3ncnc(NC4CCNCC4)c3c2)c1
  AmpC nodet inh = 34%
> Cc1nc(=O)c(-c2ccccc2)c(C)n1CC1CCCO1 (stereo unspecified)
  AmpC nodet inh = -6%

# Quoted from the listing:
# AmpC nodet inh result of CCC(c1nnnn1Cc1ccco1)N(CCc1ccccc1)Cc1cc2ccc(OC)cc2[nH]c1=O (stereo unspecified) is entered as 62%
# AmpC nodet inh result of O=c1c2[nH]c3ccccc3c2ncn1CCC1=CCCCC1 is entered as -10%

# Going on with the list.
> CS(=O)(=O)N1CCCC(C(=O)NCCCN2CCOCC2)C1 (stereo unspecified)
  AmpC nodet inh = 0%
> O=C(c1ccco1)N1CCN(S(=O)(=O)N2CCOCC2)CC1
  AmpC nodet inh = -4%
> CC(=O)N1CCC2(CC1)C(C#N)=C(N)Oc1c2sc2nc(C)cc(C)c12
  AmpC nodet inh = 20%
> CCn1cc(C(=O)NCc2ccccn2)c(=O)c2cc(S(=O)(=O)N3CCCCC3)ccc21
  AmpC nodet inh = 134%
> COc1ccc2c(c1)CCc1c(-c3noc4c3CCc3cc(OC)ccc3-4)noc1-2
  AmpC nodet inh = -6%[5.75 µM]
> COC(=O)CNC(=O)COC(=O)C(Cc1ccccc1)NC(=O)c1ccco1 (stereo unspecified)
  AmpC nodet inh = -1%
> COCC(=O)N1CCC2(CCCN(c3cccc(-c4ccccc4)c3)C2)CC1
  AmpC nodet inh = 162%
> CCCCSC(=O)Nc1ccccc1
  AmpC nodet inh = -17%
> CCC(C)[C@H](NC(=O)NCc1cccs1)C(=O)O (stereo partly specified)
  AmpC nodet inh = -1%
> Cc1cc(S(=O)(=O)N(Cc2ccc(F)cc2)CC2CCCO2)ccc1-n1cnnn1 (stereo unspecified)
  AmpC nodet inh = 82%
> O=C(OCC(=O)N1CCCC1)c1ccco1
  AmpC nodet inh = -11%
> O=C(NCc1ccc2c(c1)OCO2)c1cccc(S(=O)(=O)N2CCOCC2)c1
  AmpC nodet inh = 11%
> COC(=O)c1ccc(N2CCN(C)CC2)c(NC(=O)COc2ccc(OC)cc2)c1
  AmpC nodet inh = 59%
> O=C1CC(=O)CC(c2ccccc2Cl)C1
  AmpC nodet inh = -12%
> c1cc2c3c(c1)ccc1cccc(c13)C2
  AmpC nodet inh = ?

> O=C(NCc1ccco1)c1cnc2ccccn2c1=O
  AmpC nodet inh = 2%
> Cn1c(CN2CCCC2)nc2cc(NC(=O)Nc3ccccc3)ccc21
  AmpC nodet inh = 0%
> Cc1cccc2nc(Cn3c(=O)n(CCC(=O)NCc4ccco4)c(=O)c4sccc43)cc(=O)n12
  AmpC nodet inh = 10%
> COc1cc(C(=O)N2CCN=C2c2ccccc2)cc(OC)c1OC
  AmpC nodet inh = 6%
> CCOC(=O)Cc1nc2ccccc2[nH]1
  AmpC nodet inh = 0%
> O=C(NC1CCCC1)c1cnn2c(C(F)(F)F)cc(-c3ccc4c(c3)OCO4)nc12
  AmpC nodet inh = 47%
> Cc1ccc2[nH]c(=O)c(C(c3nnnn3C(C)(C)C)N(Cc3ccco3)CC3CCCO3)cc2c1 (stereo unspecified)
  AmpC nodet inh = 66%
> O=C1CCc2cc(S(=O)(=O)N3CCN(c4cccc(Cl)c4)CC3)ccc2N1
  AmpC nodet inh = -6%
> CC(C)c1ccc(C(c2c(O)c3ccccc3oc2=O)c2c(O)c3ccccc3oc2=O)cc1
  AmpC nodet inh = -6%[5.75 µM]
> O=C(Nc1ccccc1)N1CCC2(CC1)CCN(C(=O)c1cccc(F)c1)CC2
  AmpC nodet inh = 56%
> COc1ccc(C2C(C(=O)NC(C)C)c3ccccc3C(=O)N2C)cc1OC (stereo unspecified)
  AmpC nodet inh = 0%
> CC(C)NC(=O)C(C)n1cccc1C(=O)c1ccccc1 (stereo unspecified)
  AmpC nodet inh = -10%
> Cc1ccccc1-c1nc(CS(=O)(=O)CC(=O)NCCCN2CCCC2)c(C)o1
  AmpC nodet inh = 73%
> Cn1c(=O)c2c(nc(SCC(=O)O)n2Cc2cccc(C(F)(F)F)c2)n(C)c1=O
  AmpC nodet inh = 12%
> O=S(=O)(Nc1cccc2cn[nH]c12)c1ccc(F)cc1
  AmpC nodet inh = -16%

# Among those listed so far, 2 have a COOH group:
> CCC(C)[C@H](NC(=O)NCc1cccs1)C(=O)O (stereo partly specified)
  AmpC nodet inh = -1%
> Cn1c(=O)c2c(nc(SCC(=O)O)n2Cc2cccc(C(F)(F)F)c2)n(C)c1=O
  AmpC nodet inh = 12%

# 7 compounds picked at random from the list so far, as already listed:
> O=C(NCc1ccco1)c1cnc2ccccn2c1=O
  AmpC nodet inh = 2%
> O=C(NC1CCCC1)c1cnn2c(C(F)(F)F)cc(-c3ccc4c(c3)OCO4)nc12
  AmpC nodet inh = 47%
> O=S(=O)(Nc1cccc2cn[nH]c12)c1ccc(F)cc1
  AmpC nodet inh = -16%
> Cn1c(=O)c2c(nc(SCC(=O)O)n2Cc2cccc(C(F)(F)F)c2)n(C)c1=O
  AmpC nodet inh = 12%
> Cc1ccc2[nH]c(=O)c(C(c3nnnn3C(C)(C)C)N(Cc3ccco3)CC3CCCO3)cc2c1 (stereo unspecified)
  AmpC nodet inh = 66%
> CCOC(=O)Cc1nc2ccccc2[nH]1
  AmpC nodet inh = 0%
> O=C(Nc1ccccc1)N1CCC2(CC1)CCN(C(=O)c1cccc(F)c1)CC2
  AmpC nodet inh = 56%

# Later entries
> Cn1cnnc1SCC(=O)N1CCC(Cc2ccccc2)CC1
  AmpC nodet inh = 27%
> Cn1c(=O)c2cn3c(c2n(C)c1=O)C(c1ccccc1)CC(c1ccccc1)=N3 (stereo unspecified)
  AmpC nodet inh = 24%
> O=C(CCNS(=O)(=O)c1cccc2nsnc12)N1CCc2ccccc21
  AmpC nodet inh = 2%
> CCOC(=O)N1CCN(S(=O)(=O)c2cc(Br)cc3c2N(C(=O)CC)CC3)CC1
  AmpC nodet inh = 37%
> COc1ccc(-n2c(=O)c(-c3ccc(Cl)cc3)nc3cncnc32)cc1
  AmpC nodet inh = -8%
> COc1ccc(CCNC(=O)c2cc(C(C)C)on2)cc1OC
  AmpC nodet inh = 28%
> CN1CCN(CCCNC(=O)c2cc3c(=O)oc4ccccc4c3s2)CC1
  AmpC nodet inh = 14%
> CN(C)S(=O)(=O)c1ccc(/C(O)=C2/C(=O)C(=O)N(Cc3cccnc3)C2c2ccco2)cc1 (stereo unspecified)
  AmpC nodet inh = -8%
> Cc1cc(=O)n2nc(-c3ccccc3)sc2c1C#N
  AmpC nodet inh = -12%
> O=C(O)[C@@H]1[C@H](C(=O)O)[C@H]2C(=O)C=C[C@H]1N2Cc1ccccc1
  AmpC nodet inh = -1%[5.75 µM]
> CCCOP(=O)(c1ccc(N(C)C)cc1)C(O)c1ccccc1OC (stereo unspecified)
  AmpC nodet inh = 46%
> Cc1cc(NC(=O)COc2ncnc3sc(C)c(C)c23)no1
  AmpC nodet inh = -3%
> CS(=O)(=O)N(Cc1ccco1)Cc1ccccc1Cl
  AmpC nodet inh = 4%
> O=C(O)CCCC(=O)OCCCCc1cccs1
  AmpC nodet inh = 0%
> CC(C)c1ccc(C(O)(C(=O)O)c2ccc(C(C)C)cc2)cc1
  AmpC nodet inh = 5%[5.75 µM]

> CCCOc1ccc(N2C(=O)CC(N3CCN(c4nc5ccccc5s4)CC3)C2=O)cc1 (stereo unspecified)
  AmpC nodet inh = 99%
> CCOC(=O)N1CCN(C(=O)CSc2nnc(CNC(=O)c3c(F)cccc3Cl)o2)CC1
  AmpC nodet inh = 11%
> COC(=O)CSc1nnc(-c2ccncc2)n1N
  AmpC nodet inh = 5%
> CCCN(CCC)c1nc(C)cc(C(C#N)c2nc3ccccc3o2)n1 (stereo unspecified)
  AmpC nodet inh = -4%
> COc1ccc(N2CCN(CC(=O)Nc3cc4c(cc3C(C)=O)OCO4)CC2)cc1
  AmpC nodet inh = -1%
> CC(C)(C)SCCNC(=O)CN1C(=O)c2ccccc2S1(=O)=O
  AmpC nodet inh = 1%
> NC1(C(=O)O)CC(C(=O)O)C1 (stereo unspecified)
  AmpC nodet inh = 2%
> CCC1(CC)C(=O)NC(=O)NC1=Nc1cccc(OC)c1
  AmpC nodet inh = -8%
> CCOCCCNC(=O)CN1C(=O)CSc2ccccc21
  AmpC nodet inh = 10%
> O=C(Nc1ccccc1)c1ccc(S(=O)(=O)NCc2ccco2)cc1
  AmpC nodet inh = -13%
> COC(=O)CNS(=O)(=O)c1ccc(Cc2ccc(S(=O)(=O)NCC(=O)OC)cc2)cc1
  AmpC nodet inh = 8%
> Cc1cc(CN2C(=O)c3ccccc3C2=O)no1
  AmpC nodet inh = 0%
> Cc1cccc(Cn2c(N(C)CCO)nc3c2c(=O)[nH]c(=O)n3C)c1
  AmpC nodet inh = 9%
> CCC(=O)OC1CSc2nc3ccccc3n2C1 (stereo unspecified)
  AmpC nodet inh = -8%
> CCc1nnc(NC(=O)CSc2nnc(-c3ccoc3C)n2CC(C)C)s1
  AmpC nodet inh = -19%
> COc1cc(C2C(C#N)=C(N)Oc3n[nH]c(-c4ccccn4)c32)cc(OC)c1OC (stereo unspecified)
  AmpC nodet inh = 11%

# A draw from above in order of formula weight, ascending.
> Cc1nc(=O)c(-c2ccccc2)c(C)n1CC1CCCO1 (stereo unspecified)
  AmpC nodet inh = -6%
> CC(C)(C)SCCNC(=O)CN1C(=O)c2ccccc2S1(=O)=O
  AmpC nodet inh = 1%
> COc1ccc(C2C(C(=O)NC(C)C)c3ccccc3C(=O)N2C)cc1OC (stereo unspecified)
  AmpC nodet inh = 0%
> COC(=O)c1ccc(N2CCN(C)CC2)c(NC(=O)COc2ccc(OC)cc2)c1
  AmpC nodet inh = 59%
